ALR H2O2 inh = human ALR oxidase inhibition via reduced H2O2; inhibition, % (test concentration not listed); purified ALR, DTT oxidation, H2O2 HRP-luminol luminescence; 3.8% of 290,000 active; P55789;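 active means mean and each replicate at 75% or more; inconclusive means only one of the two met; inactive means neither met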;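 further: stock transfer was 7.5 nL into about 7.5 µL; 0% = neutral wells and 100% = wells with inactivated enzyme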
Target sequence (P55789 whole entry, looked up): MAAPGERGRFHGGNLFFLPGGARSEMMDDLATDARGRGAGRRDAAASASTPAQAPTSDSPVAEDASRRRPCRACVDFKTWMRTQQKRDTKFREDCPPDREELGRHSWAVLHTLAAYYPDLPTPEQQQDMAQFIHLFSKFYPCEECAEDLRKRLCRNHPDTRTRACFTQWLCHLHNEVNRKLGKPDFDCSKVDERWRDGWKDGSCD
HNF4A DNA FP = change in binding of human HNF4 alpha to DNA; 0.3% of 360,000 active; P41235; activity change, % at 10 µM; HNF4a-FITC DNA binding, fluorescence polarization, 1 h; in the data active means activity change above about 30%, passing the limit was not always enough;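 further: controls were the assay level and a saturating level of protein; the project sought stronger binding though the title names inhibitors; some compounds called inactive have numbers as strong as hits; positive values seem to mean higher polarization but the record does not say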
Target sequence (P41235 whole entry, looked up): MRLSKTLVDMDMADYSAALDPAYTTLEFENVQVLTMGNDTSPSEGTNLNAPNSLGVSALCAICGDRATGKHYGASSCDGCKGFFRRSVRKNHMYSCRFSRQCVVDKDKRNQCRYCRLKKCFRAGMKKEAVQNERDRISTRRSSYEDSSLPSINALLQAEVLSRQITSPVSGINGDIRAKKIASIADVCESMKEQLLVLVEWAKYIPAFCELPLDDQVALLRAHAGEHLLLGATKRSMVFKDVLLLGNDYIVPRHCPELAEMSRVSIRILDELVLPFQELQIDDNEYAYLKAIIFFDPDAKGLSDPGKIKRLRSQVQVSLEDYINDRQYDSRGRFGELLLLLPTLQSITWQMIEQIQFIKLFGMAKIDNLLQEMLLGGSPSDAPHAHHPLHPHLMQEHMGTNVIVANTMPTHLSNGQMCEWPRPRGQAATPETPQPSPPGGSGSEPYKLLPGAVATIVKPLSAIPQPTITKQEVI
Vif A3G = HIV-1 Vif–A3G interaction blockers – biochemical, TR-FRET, GST-Vif 1-94, biotin-A3G peptide, dose response retest, primary screen (AID 1117319); TR-FRET GST-Vif / biotin-A3G peptide binding; higher % means a stronger effect; test concentration not given here; strong numbers were not always called active; 0.57% of 260,000 active; one-dose inhibition, %; IC50 in µM for titrated hits;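 active means above the screen mean plus three standard deviations and confirmed in dose response; inconclusive means results disagree or hit not tested in dose response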;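 further: Vif residues 1-94 fused to GST binding biotinylated APOBEC3G peptide 110-148; 0% = full assay without inhibitor and 100% = GST in place of GST-Vif; retest series ran down from 100 µM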
LANA-H2A inh = blocks KSHV LANA binding to histone H2A/H2B; Q9QR71; cell-free LANA-H2A/H2B peptide, fluorescence polarization; inhibition, % (no concentration beside the values); 0.6% of 320,000 active; AID 2629; in the data active means inhibition mostly above about 10%, no sharp cut-off; inactive means mostly below about 6.7%;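 further: stock transfer was 7.5 nL into about 10 µL; 0% = median of vehicle wells and 100% = median of positive control wells; one replicate is shown; the record names a cut of 25% in any replicate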
RanGTP-Impb inh = disruptors of Ran-importin-beta complex formation – biochemical, FRET, CFP-Ran, YFP-importin-beta, homogeneous, primary screen. 1.1% of 300,000 active. inhibition, % (concentration not given with the values). cell-free CFP-Ran/YFP-importin-beta FRET ratio. AID 2216;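 active means most replicates above 15%; inconclusive means exactly half above 15%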;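 further: 0% = DMSO wells and 100% = Ran loaded with GDP instead of GTP; wells of about 40 µL received 100 nL stock; the first replicate is given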
B2AR ag = human beta-2 adrenergic receptor agonism by FAP; P07550; Am2.2-beta2AR cells, FAP receptor internalization, flow cytometry; reference of the scale not given here; response, % (test concentration not listed); 0.43% of 340,000 active; AID 504454;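 active means response above a set limit, near 3 SD of response in nonfluorescent compounds, cut at about 42% in these data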;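 further: stock transfer was 100 nL into about 11 µL; a reference agonist was the positive control; negative values mostly stem from fluorescent compounds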
Target sequence (P07550 whole entry, looked up): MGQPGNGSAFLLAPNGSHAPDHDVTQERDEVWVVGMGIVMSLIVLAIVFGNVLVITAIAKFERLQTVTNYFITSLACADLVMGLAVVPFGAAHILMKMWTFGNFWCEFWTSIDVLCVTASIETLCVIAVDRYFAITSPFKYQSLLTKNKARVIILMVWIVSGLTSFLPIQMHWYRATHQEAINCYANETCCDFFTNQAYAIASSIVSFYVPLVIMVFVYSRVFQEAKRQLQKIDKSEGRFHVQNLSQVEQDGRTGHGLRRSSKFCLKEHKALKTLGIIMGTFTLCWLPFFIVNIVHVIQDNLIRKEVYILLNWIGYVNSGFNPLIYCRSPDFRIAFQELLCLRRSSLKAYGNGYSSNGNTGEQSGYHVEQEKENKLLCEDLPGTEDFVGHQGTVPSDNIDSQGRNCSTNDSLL
Calb FLC = affects C. albicans growth with fluconazole; 0.57% of 300,000 active; C. albicans CaCi-2 (fluconazole-resistant clinical isolate) + fluconazole, Alamar Blue growth, 48 h; growth inhibition, % (test concentration not listed);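 active means most replicates above 75%; inconclusive means exactly half above 75%; inactive means most below 75%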;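 further: all wells also contain fluconazole at 8 µg/ml as a sub-toxic cotreatment; 0% = median of DMSO wells and 100% = median of geldanamycin control wells; wells of about 8 µL received 7.5 nL stock; the first replicate is given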
An asterisk follows results filed as active; ? = inconclusive; . = no result given; & = joins results of further samples.

SMILES	ALR H2O2 inh	HNF4A DNA FP	Vif A3G	LANA-H2A inh	RanGTP-Impb inh	B2AR ag	Calb FLC
Cc1ccc(CNC(=O)c2cc(-c3ccccc3)nn2CC2CC(c3cccnc3)=NO2)cc1 (stereo not given)	.	4.5	.	-2.1	1.9	4	-5
CCOc1cc(/C=N/NC(=O)COc2nc(C)cc(COC)c2C#N)ccc1O	-4	1.9	.	5.0	-2.8	3	-16
COc1cc(SC)ccc1C(=O)OCC(=O)NC1CCCCC1	.	3.3	5%	2.0	0.5	-8	-15
Cc1ccnc(NS(=O)(=O)c2ccc(NS(=O)(=O)c3ccccc3)cc2)n1	-11	3.3	-1%	2.2	-2.6	6	-12
C=CCNC(=O)c1nc2ccccc2s1	.	3.1	3%	0.4	3.4	-5	-21
CC(/C=C/c1ccco1)=N/NC(=O)OC(C)(C)C	3	4.7	27%	-5.4	-6.7	-7	-19
Cn1c(=O)n(CCCO)c(=O)c2c1nc1n2CCCN1Cc1ccccc1	14	0.8	.	-0.3	7.5	6	-1
O=C(NC1(C(=O)O)CCCC1)c1ccccc1	.	3.2	-9%	.	.	-13	.
Cc1ccc(NC(=O)c2cccc(NC(=O)CCC(=O)O)c2)cc1C	2	3.6	0%	0.7	-3.0	8	-1
Cc1ccc(Cc2nnc(SCC(=O)Nc3ccccc3)[nH]c2=O)cc1	-2	0.5	-3%	1.2	-0.6	-6	-9
CCOC(=O)c1cc(-c2ccccc2)n(CC(=O)N2CCCC2)c1C	1	-1.8	18%	-5.2	-0.4	0	25
COc1ccc(/C=C(\NC(=O)c2ccco2)C(=O)N2CCOCC2)cc1	-3	-3.2	.	-1.5	-1.4	-5	-2
CCN1CCCC1CNC(=O)Cn1nc(C)n2c(cc3cc(F)ccc32)c1=O (stereo not given)	-1	-1.6	2%	0.1	3.6	-15	9
CC(=O)N(C)c1ccc(NC(=S)NC(=O)/C=C/c2ccco2)cc1	.	2.0	10%	-0.9	0.8	-6	3
N#CCSc1nnc(N)s1	8	-0.9	4%	-1.2	2.8	-6	1
COC(=O)NC(Nc1sc2c(c1C(N)=O)CCCC2)(C(=O)OC)C(F)(F)F (stereo not given)	-20	7.0	13%	-2.2	5.2	1	7
CCN(CC)CCOc1nnc(-c2ccc(OC)cc2)c2ccccc12	.	2.0	-5%	-0.2	-3.2	2	-25
O=C(NCc1nnc2c(C(F)(F)F)cc(Cl)cn12)c1cccnc1	0	1.8	.	2.8	2.4	0	.
O=C(NCCS(=O)(=O)N1CCCCC1)c1ccc2c(c1)OCO2	-4	-0.6	-2%	-1.5	3.5	-6	-5
CN(C)/C=C/C(=O)c1cc(N2CCOCC2)ccc1[N+](=O)[O-]	35	2.1	-4%	-0.6	4.6	-2	-5
O=c1[nH]c(=S)[nH]c2[nH]c(=S)[nH]c12	50	.	.	-1.4	-1.2	.	-1
CCOC(=O)c1cnc2c(C(F)(F)F)cccc2c1N1CCOCC1	5	1.1	11%	-4.2	-2.2	1	-7
CCOC(=O)CCc1c(C)c2ccc(OCC(=O)N3CCOCC3)c(C)c2oc1=O	-5	4.8	.	2.6	-1.3	-3	-9
COC(=O)C1N[C@@H]([C@@H](NC(=O)COc2ccccc2)C(=O)NC2CC2)SC1(C)C (stereo not given in full)	-12	2.8	.	-4.9	5.7	-4	-11
CCCCCn1c(CN2CCN(c3cccc(Cl)c3)CC2)nc2c1c(=O)n(C)c(=O)n2C	-1	-3.1	.	1.6	-2.3	-1	9
Cc1c(N=Cc2cc(Br)cc(Br)c2O)cccc1C(=O)O	98*	-3.0	.	-6.2	-25	10	-3
CCCn1c(SCC(=O)N2CCCC2=O)nc2ccccc2c1=O	.	2.3	-5%	.	.	1	.
COc1cc2nc(N3CCNCC3)nc(N)c2cc1OC	-10	53	1%	-2.5	4.9	61*	?
O=C(O)c1ccccc1SCc1ccc2c(c1)OCO2	-2	-1.1	0%	-3.1	9.2	-1	-1
O=C(NNC(=O)c1ccc(Cl)cc1Cl)c1cccs1	-2	-1.5	-5%	-1.7	-5.2	-6	-4
Cc1ccc2nc(N3CCOCC3)c3nncn3c2c1	.	-0.1	-6%	0.2	?	-9	2
N#Cc1c(-c2c(Cl)cccc2Cl)noc1/C=C/Nc1ccc(C(=O)O)cc1	0	2.0	-4%	2.0	-4.5	-2	-7
CCSc1nnc([C@@H]2CCCN2C(=O)OC(C)(C)C)o1	.	-2.5	2%	-1.3	.	-2	-1
CCNC(=S)N(Cc1cc2cccc(C)c2[nH]c1=O)C1CCCC1	-4	-0.6	.	-3.3	-4.9	1	-6
Cc1ccccc1N=C1NC(=O)/C(=C/c2cccnc2)S1	4	1.7	-10%	-5.1	-0.9	-1	13
CCOC(=O)N1CCN(C(=O)COc2ccc(Cl)cc2)CC1	.	0.6	-4%	-3.8	0.2	-3	-1
CC(C)(CC(=O)O)CC(=O)Nc1ccc(Cl)c(Cl)c1	-2	3.7	-6%	0.5	0.7	3	4
COc1ccc(OC)c(C2C(C(=O)c3cccs3)=C(O)C(=O)N2c2cc(C)on2)c1 (stereo not given)	.	0.2	-2%	-3.0	-5.6	-6	-6
CCOc1ccc2c(c1)n([O-])c1c([n+]2=O)CCCC1	.	3.5	23%	.	1.9	-4	16
Cc1cccc(N(C(=O)c2snc(C(N)=O)c2N)C(C(=O)NC2CCCC2)c2ccco2)c1 (stereo not given)	.	0.1	-7%	.	3.0	1	14
O=C(/C=C/Nc1ccccc1F)c1cccs1	.	0.8	.	-1.0	2.4	-9	3
CC1CCN(CCCCOc2cccc(C(C)C)c2)CC1	-3	1.0	3%	-0.9	1.5	0	6
CC(C)(C)OC(=O)N1CCC(C(N)=O)CC1	-1	-3.0	18%	-2.4	0.5	-4	-2
Cc1cc(=O)n(CNC(=O)c2ccccc2)c(=S)[nH]1	31	-2.5	9%	-0.4	-0.5	0	-9
CC(C)(O)c1cc2ccc(C#Cc3ccsc3)cc2c(=O)o1	-14	-3.5	.	-1.5	.	12	.
CS(=O)(=O)N(CC(=O)NCc1ccco1)c1ccc2c(c1)OCO2	-2	-0.2	19%	-1.6	-5.4	10	-18
Cc1ccc(Oc2ccc(OCC(=O)NC3CCS(=O)(=O)C3)cc2)cc1 (stereo not given)	9	-1.5	.	0.8	1.8	3	-28
Cc1cccc(NC(=O)[C@@H]2CCCN2C(=O)OC(C)(C)C)c1	-1	0.2	.	-0.3	-3.5	-6	-8
O=C(NN=Cc1ccccc1O)C1CC1	.	3.2	-4%	.	.	-9	.
O=C(NC1CCN(S(=O)(=O)c2cccc([N+](=O)[O-])c2)CC1)C1CCCCC1	-1	0.0	.	-7.7	-0.9	-7	-9
O=C(O)CSc1cccc2cccc(C(=O)O)c12	-149	-0.8	-3%	5.3	-2.5	5	5
Fc1ccc(NC(=S)NCCN2CCOCC2)c(F)c1F	-6	-4.1	.	2.2	4.7	6	-19
Cc1ccc2nc(Cl)c(CN(C(=O)c3cnccn3)C3CCCCC3)cc2c1	-9	2.9	-10%	-6.2	6.0	-5	-3
Cc1cc(N)n2nc(C)c(-c3ccc(Cl)cc3)c2n1	.	4.2	.	-2.7	-2.3	5	4
CCN(C[C@H]1N[C@@](CC)(C(=O)OC)[C@H]2C(=O)N(C)C(=O)[C@@H]12)C(=O)COC	.	-0.9	-3%	.	.	7	.
CCOC(=O)[C@H]1[C@H]2COc3ccccc3[C@@H]2N2C(=O)CN(Cc3ccc(C)cc3)C(=O)[C@@]12C	1	-45	.	20	.	10	.
CN(C)C(CNS(=O)(=O)c1ccc(F)cc1)c1cccnc1 (stereo not given)	.	-3.6	-2%	5.2	4.5	7	2
Brc1cccc(/C=N/Nc2nc(N3CCCCC3)nc(N3CCCCC3)n2)c1	.	.	3%	-0.2	-4.5	.	1
OC[C@H]1O[C@@H](O[C@@H]2[C@@H](CO)O[C@@](O)(CO)[C@H]2O)[C@H](O)[C@@H](O)[C@H]1O	4	0.9	.	-0.8	5.6	-1	9
CC(C)[C@H](NC(=O)NCCc1ccc(F)cc1)C(=O)O	-12	-0.9	-9%	4.5	4.7	5	5
Next entries.
SMILES	ALR H2O2 inh	HNF4A DNA FP	Vif A3G	LANA-H2A inh	RanGTP-Impb inh	B2AR ag	Calb FLC
N#Cc1ccc(OCC(O)CS(=O)(=O)c2ccccc2)cc1 (stereo not given)	-6	-0.2	20%	10	-0.4	0	-3
COc1ccc(-c2nc3n(c2Br)CCC3)cc1	.	15	-7%&3%	1.2	2.4	-8	9
O/N=C1/CCc2cccc3cccc1c23	-2	-4.1	-3%	-1.2	0.0	7	5
COc1ccc(S(=O)(=O)N(C)C[C@H]2Oc3ccc(NC(=O)NC(C)C)cc3C(=O)N([C@H](C)CO)C[C@@H]2C)cc1	-3	1.4	.	0.0	.	-7	.
O=C1/C(=C/c2ccccc2)SC(=S)N1CCCC(=O)N1CCCCC1CCO (stereo not given)	-1	2.0	.	-1.2	2.8	-14	2
O=C(Cc1ccccc1)NCc1n[nH]c(=S)n1-c1ccccc1	4	0.9	28%	-0.9	1.2	0	-7
COC(=O)c1ccc(N2Cc3ccccc3/C2=N\C(=O)Nc2ccccc2)cc1	-11	-2.1	.	-9.1	1.0	-4	14
O=c1c(-c2nn[nH]n2)coc2ccc(Cl)cc12	1	1.4	21%	-2.8	-0.1	-1	-3
COc1ccc(NC(=O)CSCC(=O)Nc2cc(Cl)ccc2N2CCOCC2)cc1	3	4.7	4%	-3.1	?	13	-2
CN(c1ccccc1)S(=O)(=O)c1cccc(NC(=O)c2cc(=O)c3ccccc3o2)c1	-18	-2.4	1%	-5.2	-1.6	6	4
CSc1ccc(C(=O)C2CCCN(C(=O)c3ccc4c(c3)OCO4)C2)cc1 (stereo not given)	6	-1.6	.	-4.0	2.1	-7	-3
O=C(NC(=S)Nc1ccccc1N1CCOCC1)c1cccs1	6	-3.7	.	1.0	-0.2	-15	27
CNC(=O)NC(=O)CSc1nnc(-c2ccc(F)cc2)n1CC1CCCO1 (stereo not given)	-1	-0.2	8%	-7.5	-2.1	-1	1
Cc1ccc(Oc2ccc3c(c2)C(=O)N(c2ccc(S(=O)(=O)Nc4nccs4)cc2)C3=O)cc1	-48	1.7	10%	2.8	-1.5	5	14
CCCCC(=O)Nc1ccc(C(=O)N2CCN(c3ccccc3OC)CC2)cc1	9	9.7	1%	4.8	1.8	0	?

The final 2 records of the section above are carried over, then new ones follow:
SMILES	ALR H2O2 inh	HNF4A DNA FP	Vif A3G	LANA-H2A inh	RanGTP-Impb inh	B2AR ag	Calb FLC
Cc1ccc(Oc2ccc3c(c2)C(=O)N(c2ccc(S(=O)(=O)Nc4nccs4)cc2)C3=O)cc1	-48	1.7	10%	2.8	-1.5	5	14
CCCCC(=O)Nc1ccc(C(=O)N2CCN(c3ccccc3OC)CC2)cc1	9	9.7	1%	4.8	1.8	0	?
Cc1c(NC(=O)/C(C#N)=C/c2ccc(-c3cc(Cl)ccc3Cl)o2)c(=O)n(-c2ccccc2)n1C	-1	0.6	-1%	-0.3	1.0	7	6
CCC(=O)c1ccc(CCCCCC(=O)O)s1	-5	-5.8	-2%	1.2	7.0	16	7
O=C(c1cc2c(s1)-c1ccccc1S(=O)(=O)C2)N1CCN(Cc2ccccc2)CC1	-5	3.7	-3%	-5.4	2.4	-4	3
CCOC(=O)c1cn(-c2ccccc2CO)c2c(F)c(F)c(F)cc2c1=O	-4	-1.7	-1%	-1.0	1.1	-9	2
O=C(COc1ccc([N+](=O)[O-])cc1)Nc1ccncc1	-2	-3.8	?	-3.4	-2.8	-6	-3
CC(C)NC(=O)/C(C#N)=C/c1cccc(NC(=O)c2ccccc2Cl)c1	47	-1.8	10%	2.6	-3.2	28	-10
COc1ccc2oc(C(=O)N3CCN(C/C=C/c4ccccc4)CC3)c(C)c2c1	.	-2.0	.	0.1	.	-7	.

Screens (PubChem BioAssay)
